Bioassay records (PubChem)
TRPML1 blocker = qHTS for Inhibitors of the Human Mucolipin Transient Receptor Potential 1 (TRPML1) | Mucolipin-1 (Homo sapiens), Q9GZU1 | TRPML1-inducible cells, Ca2+ dye fluorescence, FDSS; active compounds read low; inhibition of EC80 agonist-evoked calcium signal | 390,000 tested, 0.02% active | activity change, negative = inhibition, % (concentration not given with the values); in the data active means activity change below about -50%; inconclusive means about -30% to -50%; inactive means above about -30%;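 further: stimulus is agonist 54-4 at its EC80 concentration; on the % scale 0 is the no-effect control and ±100 the full control effect; the text of the record puts the active cut at -80%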
Target sequence (Q9GZU1 whole entry, looked up): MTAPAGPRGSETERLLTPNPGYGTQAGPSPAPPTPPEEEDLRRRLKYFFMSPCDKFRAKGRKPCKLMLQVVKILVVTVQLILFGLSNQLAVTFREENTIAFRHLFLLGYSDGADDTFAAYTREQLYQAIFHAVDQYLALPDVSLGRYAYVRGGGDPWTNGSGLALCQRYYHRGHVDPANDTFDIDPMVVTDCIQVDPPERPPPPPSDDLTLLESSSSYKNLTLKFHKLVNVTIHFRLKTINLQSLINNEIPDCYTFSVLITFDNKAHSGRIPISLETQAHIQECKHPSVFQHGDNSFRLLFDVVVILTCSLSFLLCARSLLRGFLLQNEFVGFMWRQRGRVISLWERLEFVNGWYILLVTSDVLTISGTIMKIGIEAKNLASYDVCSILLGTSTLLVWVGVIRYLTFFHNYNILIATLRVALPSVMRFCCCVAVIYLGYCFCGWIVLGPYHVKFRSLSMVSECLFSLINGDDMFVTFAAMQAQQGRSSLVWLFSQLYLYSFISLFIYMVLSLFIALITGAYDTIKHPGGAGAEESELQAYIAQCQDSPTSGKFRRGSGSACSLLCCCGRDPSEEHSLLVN
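TRPML1-DL cells, Tet-induced overnight (~16 h, 37 °C) at 1,500 cells/well, were loaded with Ca8 no-wash dye plus quencher for 45-90 min at room temperature. Compounds were pinned during FDSS kinetic reading; agonist 54-4 at EC80 (4 uM final) then added.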
D2 ag = Beta-Arrestin HTS for Positive Allosteric Modulators of the Human D2 Dopamine Receptor: Agonists; D(2) dopamine receptor (Homo sapiens), P14416; DiscoveRx PathHunter D2 beta-arrestin, luminescence, 90 min; 100% = 57 uM dopamine signal; activation, % (concentration not given with the values); 360,000 tested, 0.084% active; AID 624465, 2012; in the data active = activation above about 40%; inconclusive = about 15% to 40%; inactive = below about 15%; further: compound concentration not given in the record; the text of the record calls up to 30% inactive
Target sequence (P14416 whole entry, looked up): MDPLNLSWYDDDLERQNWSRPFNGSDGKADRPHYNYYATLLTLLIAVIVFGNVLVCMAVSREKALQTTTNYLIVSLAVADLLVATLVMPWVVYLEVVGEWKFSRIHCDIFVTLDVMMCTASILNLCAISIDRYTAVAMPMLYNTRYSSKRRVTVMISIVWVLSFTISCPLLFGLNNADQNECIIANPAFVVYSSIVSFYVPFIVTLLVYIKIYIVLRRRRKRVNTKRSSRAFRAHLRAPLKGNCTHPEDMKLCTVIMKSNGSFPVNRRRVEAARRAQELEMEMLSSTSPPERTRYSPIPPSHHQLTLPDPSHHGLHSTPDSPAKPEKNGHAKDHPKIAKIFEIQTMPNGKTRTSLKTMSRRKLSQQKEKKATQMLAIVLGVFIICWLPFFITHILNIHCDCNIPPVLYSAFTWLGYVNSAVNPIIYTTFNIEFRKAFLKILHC
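DiscoveRx PathHunter D2 beta-arrestin cells (2,100/well) attached overnight, then compound-stimulated 90 min at 37 C in HBSS/10 mM HEPES/0.1% Tween-20 buffer; beta-galactosidase complementation read by luminescence after 1 h at ambient temperature. Dopamine 57 uM final (EC100) as control.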
CtBP-E1A inh = qHTS Assay for Inhibitors of the CtBP/E1A Interaction; 340,000 tested, 0.49% active; CtBP / adenovirus E1A interaction (AlphaScreen); activity change, % (no concentration beside the values); AlphaScreen GST-E1A/His-CtBP binding, 1536-well; active compounds read low; control for the full effect not named in the record; in the data active means activity change below about -65%; inconclusive means about -30% to -65%; inactive means above about -30%; further: on the % scale 0 is the no-effect control and ±100 the full control effect
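AlphaScreen with 125 nM GST-E1A and 125 nM His-CtBP (5X stocks) in Tris pH 8.0, 300 mM NaCl, BSA, Tween 20, TCEP. Compounds preincubated 2 h at 37 deg C, then glutathione donor/nickel acceptor beads added for 1 h at 37 deg C in dark.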
TRPML1 ag = qHTS for Agonists of the Human Mucolipin Transient Receptor Potential 1 (TRPML1) | TRPML1-expressing cells, Ca2+ dye fluorescence, FDSS; host cell line not named in the record; reference of the full effect not given here | activation, % (no concentration beside the values) | 410,000 tested, 0.12% active; in the data active = activation above about 50%; inconclusive = about 30% to 50%; inactive = below about 30%; further: 0% is about no effect; the text of the record puts the active cut at 80%
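Tet-induced TRPML1-DL cells, 1,500 per well, cultured overnight, were loaded with a no-wash Ca2+ dye for 45–90 min. Calcium fluorescence was recorded on the FDSS for 110 s after compound addition, before the EC80 agonist (4 uM 54-4) was added.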
Six1-Eya2 inh = qHTS Assay for Inhibitors of the Six1/Eya2 Interaction. AlphaScreen GST-Six1/His-Eya2 binding, biochemical; active compounds read low; control for the full effect not named in the record. 360,000 tested, 0.56% active. AID 651725, 2012. Homeobox protein SIX1 (Homo sapiens) + Protein phosphatase EYA2 (Homo sapiens), …. activity change, % (concentration not given with the values); in the data active = activity change below about -65%; inconclusive = about -30% to -65%; inactive = above about -30%; further: on the % scale 0 is the no-effect control and ±100 the full control effect
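AlphaScreen with GST-Six1 and His-Eya2 (5X mix: 250 nM and 500 nM), glutathione donor and nickel acceptor beads; buffer 50 mM Tris pH 8.0, 300 mM NaCl, 1 mM TCEP; 1 h at 37 C in the dark.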
PINK1 expr mod = A Quantitative High throughput Screen to Identify Chemical Modulators of PINK1 Expression | 410,000 tested, 0.2% active | Potency, µM (highest dose often 76.6 µM), for the others: at the top dose activation (PINK1 increase), most hits filed as activators | AID 624263, 2012 | PINK1 immunofluorescence, high-content cytometry, 24 h; active = well fitted activation curve with a large enough effect; inconclusive = small, poorly fitted or top-dose-only effect; inactive = flat fitted curve, though single readings scatter; cell line not stated here;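 further: potency means the concentration at half of the fitted maximal effect; % of control where 0% means no effect; nearly all actives have a fitted effect of over 65% in size; a mitochondrial uncoupler was the plate control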
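Stable cell line, 250 cells/well, 12 h attachment; compounds pinned at 5 concentrations, 24 h; CCCP control. Fixed with nuclear dye, primary antibodies 12 h at 10 degrees C, secondary plus cell stain; laser-scanning cytometer read.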
* = called active by the depositor; ? = inconclusive; nt = no result given; & = joins results of further samples; [ ] = another dose, or the depositor's remark.

SMILES	TRPML1 blocker	D2 ag	CtBP-E1A inh	TRPML1 ag	Six1-Eya2 inh	PINK1 expr mod
CCOC(=O)c1ccc(NC(=O)c2nc(SC(C)C)ncc2Cl)cc1	0.7	nt	nt	4.8	nt	0.3%
COc1ccc(C2=NCCn3nc4ccccc4c32)cc1	-18.3	-0.3	-14.3	-0.3	-13.3	-1.4%
COc1ccc(OC)c(NC(=O)CN(C)CCOc2ccc(Br)cc2)c1	13.9	-0.7	-5.1	3.1	3.0	-1.5%
CC(=O)c1ccc(OCCCC(=O)OCC(=O)N2CCN(S(=O)(=O)c3ccc(C)cc3C)CC2)cc1	12.3	11.2	0.2	3.6	0.4	1.2%
COc1ccc(-c2n[nH]c(C(F)(F)F)c2-c2cc3ccccc3o2)c(O)c1	18.4	4.9	-2.0	1.5	-1.1	3.7%[38.3 µM]
O=C(c1nc2ccccn2c1CN1CCC(Cc2ccccc2)CC1)N1CCCC1	-13.1	-5.2	-3.2	-0.2	-7.5	1.6%
CCc1cc(Br)ccc1N1C(=O)C2CC=CCC2C1=O (configuration not stated)	12.5	2.1	5.2	-1.1	-3.8	-0.9%
O=C(O)C(Cc1ccc(OS(=O)(=O)Cc2ccccc2)cc1)NS(=O)(=O)Cc1ccccc1 (configuration not stated)	5.9	-2.3	-18.1	0.2	-12.4	0.4%
NC(=O)c1nsc(C(=O)N(Cc2ccco2)C(C(=O)NCC2CCCO2)c2ccc(F)cc2)c1N (configuration not stated)	-11.3	-0.6	-3.4	1.1	-8.4	0.9%
CNC(=O)CC(CC(=O)c1ccccc1)c1ccccc1 (configuration not stated)	-1.1	0.7	3.6	0.4	-4.6	1.5%
O=S(=O)(Cc1ccccc1)/C1=C(\N2CCOCC2)CCCCCC1	-9.7	-3.2	6.4	-0.5	2.9	2.7%[38.3 µM]
CCOC(=O)[C@]12CCCC=C1N(Cc1ccc(Cl)cc1Cl)C(=O)[C@H](CC(=O)NCCc1ccccc1OC)C2	nt	nt	-1.0	-0.6	-7.9	1.6%
COc1ccc(/C=C(/C#N)C(=O)NC2CCCCC2)cc1Br	2.2	-4.6	-0.9	10.7	-0.5	9.8%
O=C(NCCc1c[nH]c2ccccc12)OCCCCOC(=O)NCCc1c[nH]c2ccccc12	0.9	1.6	-7.7	-0.3	-21.2	14.5%
COC(=O)c1ccc(C(=O)OC)c(NC(=O)COC(=O)C23CC4CC(CC(O)(C4)C2)C3)c1	7.4	-2.5	6.5	-0.5	3.7	-0.7%
COc1cc(C2CC(=O)N(c3ccc(C)cc3)C(=O)C2)cc(OC)c1OC	9.0	-1.3	12.6	0.4	0.6	5.0%
O=C(NCc1ccccn1)c1ccc(N2CCCC2=O)cc1	-11.5	1.2	-3.8	1.0	3.1	-0.3%
Cc1ccccc1-n1ccnc1SCC(=O)Nc1cccc(S(=O)(=O)NC2=NCCC2)c1	12.1	-4.5	-0.5	0.4	-15.0	1.3%
Cc1ccc(N2CC(NC(=O)CCc3ccccc3)CC2=O)cc1 (configuration not stated)	0.1	nt	nt	-0.1	nt	-0.1%
CCOc1ccccc1N=CC1=C(O)CC(c2ccccc2)CC1=O (configuration not stated)	3.9	-4.3	9.8	1.8	-3.5	2.7%
S=C(Nc1ccc(Cl)c(Cl)c1)N1CCOCC1	0.1	-0.5	5.7	0.5	-1.1	0.1%
COc1ccc(C(=O)N(Cc2ccccc2)c2cccc(C)c2)c(OC)c1OC	-9.1	0.1	4.6	1.3	-1.7	-0.1%
O=C(NNc1ncnc2sccc12)c1ccc(Cl)cc1	25.1	3.6	3.0	-0.3	0.0	-0.5%
OC1(c2ccc(Cl)cc2)CCN(Cc2cn[nH]c2-c2ccc(F)cc2)CC1	66.1	2.0	3.0	0.8	5.5	4.9%
CCOc1ccccc1Nc1nc(N)nc(CSc2nccc(C)n2)n1	1.1	-2.4	-0.7	0.2	-3.0	2.4%
CCN(CC)C(=O)Cn1cc(S(=O)(=O)CC(=O)Nc2ccc(OC)c(OC)c2)c2ccccc21	-5.7	4.4	2.1	0.2	-1.6	2.5%
Cc1ccc2c(c1)NC(=O)C(CC(=O)NCCCN1CCCCC1C)O2 (configuration not stated)	-1.9	-5.0	-6.0	0.2	4.7	2.6%
Cc1ccc(S(=O)(=O)N2CCCC2CNC(=O)C(=O)NCc2ccccn2)cc1 (configuration not stated)	-2.1	-3.6	-21.7	0.8	-17.7	1.4%
Cc1ccc(C(=O)NN=Cc2ccc3c(c2)OCO3)cc1	-4.7	2.6	0.7	-0.8	-0.3	8.3%
O=C1C2C3CC(C(Br)C3Br)C2C(=O)N1CC1CCCO1 (configuration not stated)	-3.0	-4.6	-15.7	0.0	-3.8	-1.7%
O=C1C(Cl)=C(N2CCN(Cc3ccccc3)CC2)C(=O)N1c1ccccc1	6.1	-2.9	-3.5	-0.6	-2.8	1.2%
CCc1ccc(NC(=O)CSc2nc3nc(C)cc(C)n3n2)cc1	50.7&50.2	1.7	-16.3	0.1&0.6	-1.5	1.6%&0.5%
O=C(CSc1nnnn1-c1ccccc1)Nc1nc(-c2ccccc2)ns1	0.0	2.3	4.4	1.1	4.8	11.0%
COc1cccc2sc(N(Cc3cccnc3)C(=O)c3ccc4c(c3)OCCO4)nc12	-0.5	nt	nt	0.1	nt	4.5%
O=C(O)c1cccc(-n2nc(-c3ccc(Cl)c([N+](=O)[O-])c3)c3ccccc3c2=O)c1	35.9	10.8	-3.3	4.0	8.6	0.9%
COCCNC(=O)C(c1ccc(Cl)cc1)N(C(=O)CCC(=O)Nc1ccccn1)C1CCCC1 (configuration not stated)	-18.0	-2.4	2.3	0.9	15.6	-1.3%
COc1ccc(NC(=O)CN(C)C(=O)c2ccc(C)s2)cc1	-6.7	-1.4	0.7	-0.8	3.7	5.1%
COc1cccc(NC(=O)Nc2ccc(F)cc2)c1	26.7	0.2	16.2	-0.2	0.5	-1.1%
CC(=O)c1cccc(NS(=O)(=O)c2ccc(C(=O)Nc3ccccc3)cc2)c1	-2.4	4.4	-14.2	0.9	-6.9	0.4%
C/C(=N\NC(=O)c1cc(Br)ccc1O)c1ccccn1	-20.9	-4.8	-8.6	-0.4	-3.2	-0.3%
CCOc1ccc(/C=N/NC(=O)CSc2n[nH]c(=O)[nH]c2=O)cc1OC	5.1	1.2	?	-0.4	-26.6	0.6%
CC(Cc1cccs1)NC(=O)CCCn1nnnc1CN1CCOCC1 (configuration not stated)	-10.8	-3.7	10.2	-0.2	4.0	-0.5%
c1ccc(CN2CC[C@@H](Nc3nccn4ccnc34)C2)cc1	nt	-8.1	-13.7	-0.4	2.8	1.5%
Cc1ccc(N2CCN(c3nc4ccc(C)cc4n4nnnc34)CC2)c(C)c1	-1.2	nt	nt	0.1	nt	0.5%
COc1ccc(-n2ncc3c(N4CCN(c5cccc(C)c5C)CC4)ncnc32)cc1	8.0	-2.9	1.7	-0.7	1.1	3.2%
Cc1nn(C(C)C(=O)N2CCc3ccccc3C2)c(=O)c2cc3occc3n12 (configuration not stated)	31.3	-1.0	-0.4	-0.8	9.0	2.1%
CN1CCN(Cc2nc(N)nc(Nc3ccc4c(c3)OCCO4)n2)CC1	8.9	-0.1	2.0	0.0	-4.5	-1.0%
CCCOc1cccc(C2/C(=C(/O)c3ccccc3)C(=O)C(=O)N2CCN(C)C)c1 (configuration not stated)	6.6	-4.3	-0.3	0.2	-7.2	0.0%
Cc1cc(C)c2nc(C)cc(Nc3cccc(C(=O)O)c3)c2c1	11.8	nt	nt	-0.4	nt	2.9%
Nc1nnc(SCCN2C(=O)c3ccccc3C2=O)s1	5.9	-1.2	7.2	3.1	2.8	-1.1%[38.3 µM]
(next part)
SMILES	TRPML1 blocker	D2 ag	CtBP-E1A inh	TRPML1 ag	Six1-Eya2 inh	PINK1 expr mod
Cc1onc(-c2ccccc2)c1C(=O)N=C(N)c1ccc(Cl)cc1	7.6	1.6	7.0	1.4	3.0	11.8%
CC1CCc2onc(C(=O)N3CCN(c4ccc(Cl)cc4)CC3)c2C1 (configuration not stated)	-2.7	nt	nt	1.4	nt	?
C#CCC(NC(=O)c1ccc(C(F)(F)F)cc1)C(=O)NCCC (configuration not stated)	7.6	-3.6	-19.8	0.2	8.5	-0.3%
O=C1CSC(c2cccc(F)c2)N1c1ccccc1 (configuration not stated)	11.6	-0.9	nt	2.5	0.3	0.8%
C[C@H]1CN([C@@H](C)CO)S(=O)(=O)c2ccc(Br)cc2O[C@H]1CN(C)C(=O)Cc1ccccc1	37.6	4.8	5.3	1.0	2.2	0.4%
CCn1ccc2cc(S(=O)(=O)N3CCC(C(=O)NCCc4ccccc4Cl)CC3)ccc21	15.1	nt	nt	0.6	nt	0.2%
CCc1ccc(NC(=O)Cn2ncc3c4ccccc4n(C)c3c2=O)cc1	-5.3	-5.9	5.9	1.4	-0.4	1.7%&0.1%

Given bar-delimited: entries from further up
canonical_smiles | TRPML1 blocker | D2 ag | CtBP-E1A inh | TRPML1 ag | Six1-Eya2 inh | PINK1 expr mod
CCOC(=O)[C@]12CCCC=C1N(Cc1ccc(Cl)cc1Cl)C(=O)[C@H](CC(=O)NCCc1ccccc1OC)C2 | nt | nt | -1.0 | -0.6 | -7.9 | 1.6%
COc1ccc(/C=C(/C#N)C(=O)NC2CCCCC2)cc1Br | 2.2 | -4.6 | -0.9 | 10.7 | -0.5 | 9.8%
O=C(NCCc1c[nH]c2ccccc12)OCCCCOC(=O)NCCc1c[nH]c2ccccc12 | 0.9 | 1.6 | -7.7 | -0.3 | -21.2 | 14.5%
COC(=O)c1ccc(C(=O)OC)c(NC(=O)COC(=O)C23CC4CC(CC(O)(C4)C2)C3)c1 | 7.4 | -2.5 | 6.5 | -0.5 | 3.7 | -0.7%

Arranged by heavy-atom count (largest number first): 3 of the compounds above.
SMILES	TRPML1 blocker	D2 ag	CtBP-E1A inh	TRPML1 ag	Six1-Eya2 inh	PINK1 expr mod
CCc1ccc(NC(=O)Cn2ncc3c4ccccc4n(C)c3c2=O)cc1	-5.3	-5.9	5.9	1.4	-0.4	1.7%&0.1%
C#CCC(NC(=O)c1ccc(C(F)(F)F)cc1)C(=O)NCCC (configuration not stated)	7.6	-3.6	-19.8	0.2	8.5	-0.3%
O=C1CSC(c2cccc(F)c2)N1c1ccccc1 (configuration not stated)	11.6	-0.9	nt	2.5	0.3	0.8%
